TRPV1 potentiator: potentiators of human vanilloid receptor 1 (TRPV1); actives 0.02% (n = 320,000); Q8NER1; potentiation, % at 8.33 µM; AID 540277; TRPV1-expressing cells, Fluo-8 calcium influx, capsaicin EC20 potentiation; host cell line not named in the record; control for the full effect not named in the record; active means potentiation above 80%; inconclusive means 30% to 80%; inactive means below 30%; also: 0% is about no effect
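Fluo-8 calcium influx in TRPV1-expressing cells, kinetic read (ex 480/em 520 nm). Compound added and read 3 min for agonist activity, followed by capsaicin at EC20 final and 2 min further read for enhancement.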
Sfp PPTase inh: blocks B. subtilis Sfp PPTase activity | Q9F4F7 | Biochemical Sfp PPTase activity, qHTS | Potency, µM, inactives show max response, negative = inhibition, most hits filed as inhibitors | actives 3.5% (n = 310,000) | AID 1490; active = well fitted inhibition curve with a large enough effect; inconclusive = small, poorly fitted or top-dose-only effect, or another doubt; inactive = no such curve, though single readings can be large or run the other way;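 also: the enzyme is Sfp with the accession as filed and its product quenches rhodamine fluorescence; potency is read from the fitted curve at half-maximal effect; 0% = enzyme reaction without inhibitor and -100% = no enzyme wells; top concentration of the series not given in the record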
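After 15 min at room temperature with compound, 15 nM Sfp received 5 uM rhodamine-CoA plus 12.5 uM BHQ-2-ybbR (50 mM Hepes pH 7.6, 10 mM MgCl2). Rate came from the fluorescence difference over 30 min, ex 525/em 598 nm.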
gsp antag: gsp mutant antagonism; gsp-mutant cells, cAMP HTRF, 30 min; control for the full effect not named in the record; actives 0.4% (n = 340,000); Potency, µM (top dose mostly 76.9 µM), for inactives: top-dose activity change, negative = inhibition, usual class: inhibitors; active = falling curve of any shape with a large fitted effect; inconclusive = falling curve, mostly with a smaller effect; inactive = flat or rising curve; cell line not stated here;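 also: intracellular cAMP measured with PDE inhibitor Ro 20-1724 present during compound exposure; potency is read from the fitted curve at half-maximal effect; % is scaled to controls: 0 for no effect and ±100 for the full control effect; nearly all actives have a fitted effect of over 65% in size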
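HTRF cAMP read-out (cAMP-d2 plus anti-cAMP antibody-K in lysis buffer, 30 min RT). Before lysis, cells are exposed to compounds with […] for 30 min at 37C in DPBS containing Ca/Mg, BSA and Tween 20.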
gsp agonist: activates gsp, the McCune-Albright syndrome mutation; actives 0.13% (n = 340,000); Potency, µM (top dose mostly 76.9 µM), inactives show at the highest dose activation (cAMP increase), usual class: activators; gsp mutant cells, cAMP HTRF, 30 min; control for the full effect not named in the record; active = well fitted activation curve with a large enough effect; inconclusive = small, poorly fitted or top-dose-only effect, or another doubt; inactive = no such curve, though single readings can be large or run the other way; cell line not stated here;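 also: phosphodiesterase inhibitor Ro 20-1724 added with compounds to block cAMP breakdown; potency is read from the fitted curve at half-maximal effect; nearly all actives have a fitted effect of over 60% in size; about a fifth of the inactives were tested at one dose only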
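Cells stably selected in G418 were plated at 2000/well, grown 16-24 hr, then given compounds in DMSO with the PDE inhibitor […] (300 uM solution added) for 30 min at 37C; cAMP was read by HTRF.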
ClpP mod: qHTS Assay for Activators of ClpP; ATP-dependent Clp protease proteolytic subunit (Bacillus subtilis (strain 168)), P80244; purified B. subtilis ClpP, FRET peptide cleavage, 20 min; Potency, µM (top dose mostly 57.5 µM), without a hit: at the top dose activity change, negative = active; actives 1.9% (n = 340,000); active = well fitted falling curve with a large enough effect; inconclusive = small, poorly fitted or top-dose-only effect; inactive = no such curve, though single readings can be large or run the other way; also: potency is read from the fitted curve at half-maximal effect; the source files actives as falling curves though it sought activators and does not explain the sign; nearly all actives have a fitted effect of over 65% in size; many hits overshoot -100%
Target sequence (P80244 whole entry, looked up): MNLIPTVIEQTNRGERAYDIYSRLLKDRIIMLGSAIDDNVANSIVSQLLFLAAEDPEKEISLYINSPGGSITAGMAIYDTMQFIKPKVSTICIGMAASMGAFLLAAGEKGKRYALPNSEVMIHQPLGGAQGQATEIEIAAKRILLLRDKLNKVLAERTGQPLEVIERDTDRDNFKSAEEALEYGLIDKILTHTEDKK
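Buffer: 100 mM Tris/HCl pH8, 100 mM KCl, 0.05% low protease BSA, 2.5% glycerol, 0.01% Tween-20. ClpP 10 microg/mL final; 20 min RT; delta FRET normalized to ADEP and DMSO controls.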
D2 PAM: potentiates the human D2 dopamine receptor allosterically | P14416 | DiscoveRx D2 beta-arrestin cells, luminescence, 90 min; 100% = 57 uM dopamine signal | potentiation, % (concentration not given with the values) | actives 0.23% (n = 360,000) | AID 624464; active = potentiation of 50% or more; inconclusive = 30% to 50%; inactive = 30% or less;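 also: compound concentration not given in the record; tested on top of an EC20 dose of dopamine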
Target sequence (P14416 whole entry, looked up): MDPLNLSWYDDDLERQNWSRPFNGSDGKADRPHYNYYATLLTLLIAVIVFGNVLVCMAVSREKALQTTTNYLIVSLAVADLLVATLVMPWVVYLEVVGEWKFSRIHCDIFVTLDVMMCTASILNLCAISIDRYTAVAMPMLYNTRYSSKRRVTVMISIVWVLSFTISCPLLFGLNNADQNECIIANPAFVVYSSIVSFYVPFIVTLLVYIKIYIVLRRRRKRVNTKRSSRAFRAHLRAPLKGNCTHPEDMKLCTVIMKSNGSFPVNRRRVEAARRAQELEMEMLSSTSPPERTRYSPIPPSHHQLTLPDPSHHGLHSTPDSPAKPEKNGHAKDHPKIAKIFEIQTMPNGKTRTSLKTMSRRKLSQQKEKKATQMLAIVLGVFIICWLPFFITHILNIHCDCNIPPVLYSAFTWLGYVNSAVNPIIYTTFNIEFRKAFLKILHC
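D2 cells co-treated with compound plus 50 nM dopamine (EC20) for 90 min at 37 deg C to detect potentiation. Beta-arrestin recruitment was read as enzyme-fragment luminescence after 1 h at ambient temperature. Full response was set by 57 uM dopamine.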
Menin-MLL FL inh: inhibitors of human menin-MLL interaction, wild-type MLL peptide; FP activity change, % at 61.4 µM; 290,000 tested, under 10 active; AID 1766; Fluorescence polarization, fluorescein-MLL peptide displacement from menin; inconclusive = falling polarisation curve, or a change in total fluorescence; inactive = total fluorescence flat and polarisation flat or rising; no compound was filed as active; the % refers to the polarisation; negative = inhibition;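 also: % of control where 0% means no effect; inhibitors lower the polarisation; unlabelled MLL peptide was the positive control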
The depositor's hits bear a star; ? = inconclusive; . = not tested or not shown; [ ] = another dose, or the depositor's remark.

SMILES | TRPV1 potentiator | Sfp PPTase inh | gsp antag | gsp agonist | ClpP mod | D2 PAM | Menin-MLL FL inh
CCN(CC)c1nc2c(c(=O)[nH]c(=O)n2C)n1CCOc1ccccc1 | 25.0 | 10.8% | -7.7% | -0.4%[15.4 µM] | -1.8% | -2.0 | 0.4
COc1cc(CNCCSc2nnnn2C)cc(Br)c1OCc1ccc(F)cc1 | -8.0 | 14.1µM* | -3.8% | -13.3% | -2.5% | -25.5 | 2.3
CCOC(=O)C1=C(C)N(C[C@@H]2CC[C@@H](Cc3ccc4cc(OC)ccc4c3)O2)C(=O)NC1c1ccc(OC)cc1 (stereo partly specified) | . | . | -6.1% | . | -16.1% | -2.4 | .
CN(C)CCCCCN(C)Cc1cc2ccccc2o1 | 10.2 | 13.6% | 2.6% | 7.7%[15.4 µM] | . | -4.2 | -3.7
COc1ccc(C(=O)NCc2nnc(SCC(=O)Nc3cccc(F)c3)o2)cc1 | ? | 13.0% | -5.3% | 14.3%[15.4 µM] | . | -7.5 | -0.6
CCCCCC(=O)Nc1cccc(C2=NOC3(C2)C[C@@H](C(N)=O)N(C(=O)Cc2ccc([N+](=O)[O-])cc2)C3)c1 (stereo partly specified) | -8.3 | -6.3% | 5.5% | -7.1% | -1.7% | -6.2 | 1.7
Cc1cc(C(=O)CS(=O)(=O)c2ccc(Cl)cc2)cc(C)c1O | -9.2 | -15.4% | -3.3% | -15.6% | 0.7% | -6.6 | -7.9
Cc1ccccc1C(=O)OC(C)CN1CCN(C)CC1 (stereo unspecified) | 5.6 | 4.1% | 7.5% | -3.1%[15.4 µM] | -0.6% | -16.7 | 3.0
COC(=O)c1ccccc1NC(=O)CSc1nnnn1C | -0.4 | -1.1% | 2.3% | -18.5% | -4.6% | -3.3 | 1.6
CCOC(=O)c1ccc2cccc(C)n2c1=O | 0.2 | -5.4% | 8.5% | 0.8% | -1.3% | 11.2 | 0.0
Cc1ccc(SCC(=O)NCc2ccco2)cc1 | -25.9 | -0.3% | 8.8% | 3.9% | -0.8% | -1.2 | 0.4
CCc1cccc(CC)c1NC(=O)C1CSC2(C)CCC(=O)N12 (stereo unspecified) | 7.6 | . | 4.9% | 18.9% | -0.3% | -11.4 | .
Cc1ccc(S(=O)(=O)N2CCN(c3nc4ccccc4nc3-n3nc(C)cc3C)CC2)cc1 | -3.4 | 0.6% | -1.3% | ? | ? | -21.2 | 4.4
COc1ccccc1OCc1nc(C#N)c(NCCCn2ccnc2)o1 | 10.7 | 20.5% | 5.4% | 8.8% | -3.4% | -19.2 | 0.7
CCCCCCNc1c(C(=O)OCC)c(=O)[nH]c2ccccc12 | 1.9 | 5.2% | -4.4% | -39.5%[inhibitor] | -1.8% | -1.3 | -0.2
CC(NC(=O)COC(=O)/C(=C/c1cccs1)c1cccs1)c1ccccc1 (stereo unspecified) | -10.3 | -8.5% | ? | -43.9%[inhibitor] | 1.5% | -8.8 | 1.8
O=C(NNC(=O)c1cccs1)c1ccc(F)cc1 | -6.7 | -0.7% | 6.5% | 2.6% | . | 4.2 | -0.1
CCOC(=O)c1[nH]c2cc(OC)c(OC)cc2c1NC(=O)CN1CCN(C)CC1 | 10.7 | 1.1% | . | . | . | . | 3.2
CCOc1ccc(Nc2nc(Nc3ccc(O)cc3)nc(C)c2[N+](=O)[O-])cc1 | 10.1 | 2.3% | -0.8% | 1.5%[15.4 µM] | . | -0.7 | -4.0
O=C(Cc1c[nH]c2ccccc12)N[C@@H](Cc1c[nH]c2ccccc12)C(=O)O | -0.8 | 1.6% | 6.7% | -26.5% | -2.5% | -0.7 | -3.0
CC(=O)N1CCN(C(=O)c2cc(S(=O)(=O)N3CCCCC3)ccc2Cl)CC1 | -4.4 | . | 17.6% | -23.2% | -4.1% | 11.0 | .
CCC(CC)c1nnc(NC(=O)CCc2ccccc2)s1 | 11.0 | 15.2% | 3.8% | 2.0% | . | 0.3 | -2.3
CCCCNC(=O)CSc1nc(N)c(C(=O)Nc2ccc(OC)cc2)s1 | -7.5 | -7.4% | -5.9% | ? | . | -3.4 | 1.2
Cc1cc(Cl)ccc1OCC(=O)Nc1cccnc1 | -18.6 | 13.6% | -4.7% | -24.2% | . | -2.9 | 5.5
CCCc1nc2oc3ccccc3c(=O)c2c(=O)n1-c1ccc(C)cc1 | 19.8 | -1.6% | ? | 20.2% | 2.2% | -8.0 | 8.0
(more compounds)
SMILES | TRPV1 potentiator | Sfp PPTase inh | gsp antag | gsp agonist | ClpP mod | D2 PAM | Menin-MLL FL inh
COc1cc(CNc2ncn[nH]2)cc(Br)c1OC | 3.9 | 13.6% | 1.8% | -12.7% | -1.3% | -7.1 | 4.6
O=C(c1ccc(N2CCCC2=O)cc1)N1CCN(c2ccccc2F)CC1 | 8.8 | 11.6% | 9.6% | -19.5% | -1.0% | -15.2 | .
Cc1cccc(/C=C2\CCC(C3CCCC3)C2=O)c1 (stereo unspecified) | -0.3 | 3.4% | -1.7% | 6.3%[15.4 µM] | 1.7% | -17.3 | -1.0
COc1ccccc1-c1nc(N)n[nH]1 | -12.8 | -5.4% | 3.2% | -7.4% | 3.7% | 0.4 | -1.4
CCn1cc(C(=O)NCc2ccco2)c2cc(OC)c(OC)cc2c1=O | -12.1 | -6.1% | 6.5% | 3.6% | ? | 4.5 | -0.5
COC(=O)C1=C(C)NC(C)=C(C(=O)OCC2CCCO2)C1c1cccc(Cl)c1 (stereo unspecified) | -5.6 | 7.1% | -12.3% | -32.5%[inhibitor] | ? | 7.5 | .
COCCCN(Cc1ccco1)C(=O)c1cc2c(s1)-c1ccc(Cl)cc1S(=O)(=O)C2 | 12.6 | 14.8% | -3.1% | ? | 14.5% | -16.4 | 0.5
COc1ccc(C(=O)N/C(=C\c2ccccc2)C(=O)Nc2ccccc2C(=O)O)cc1 | . | . | 10.8% | -6.6%[15.4 µM] | 0.1% | -7.3 | .
Cn1nc(C(F)(F)F)c(C#N)c1N1CCN(c2ccccn2)CC1 | -7.7 | -9.4% | -22.8% | -11.0%[15.4 µM] | . | -2.6 | 0.5
COc1ccc(CC2(CO)CCN(Cc3cccnc3)CC2)cc1 | ? | 8.91µM* | 7.7% | -1.1%[15.4 µM] | . | -12.6 | ?
CNC(=S)N1CCN(c2c(F)cc3c(=O)c(C(=O)O)cn(C4CC4)c3c2OC)CC1C (stereo unspecified) | -5.9 | -1.8% | -10.3% | ? | 28.2µM* | 0.5 | 1.3
COc1cccc(/C=N/NC(=O)CSc2cccc3cccnc23)c1 | 22.9 | -12.2% | 1.7% | 15.8% | 3.4% | -15.1 | -0.9
CC(C)CCn1c(=O)c2ccccc2n2c(CCC(=O)NC3CCN(Cc4ccccc4)CC3)nnc12 | -7.3 | 10.0% | -2.8% | -58.0%[inhibitor] | -4.8% | -8.5 | 1.7
COc1ccc2oc(=Nc3cc(F)ccc3F)c(C(N)=O)cc2c1 | 6.3 | -10.5% | 1.3% | 0.4%[15.4 µM] | . | 3.1 | 1.4
Cc1nn(-c2ccccc2)c(C)c1C(=O)Nc1ccc(N2CCOCC2)cc1 | -1.9 | -9.4% | -19.6% | -42.7%[inhibitor] | 0.4% | -2.9 | -3.9
O=C(O)c1cc(N2C(=O)C3C4C=CC(C4)C3C2=O)ccc1NCc1cccnc1 (stereo unspecified) | 4.4 | -7.6% | 12.0% | 0.3% | 35.5µM* | -4.9 | 7.9
CCOC(=O)C1CCN(C(=O)N2CCOCC2)CC1 | 1.6 | 12.5% | 5.4% | 19.4% | 0.4% | -6.9 | -2.0
COc1ccc(N(C(=O)c2ccncc2)S(=O)(=O)c2cccc([N+](=O)[O-])c2)cc1 | -9.7 | 7.2% | -9.9% | 16.0% | -0.7% | -4.8 | .
O=C(CN1CCN(Cc2ccccc2)CC1)Nc1ccc(Cl)cc1 | -23.6 | 1.6% | 0.3% | -1.8% | -3.1% | -16.9 | 0.0
COC(=O)c1ccccc1NC(=O)Nc1c(C)n(C)n(-c2ccccc2)c1=O | -0.3 | 11.1% | 16.6% | ? | -3.3% | -8.6 | .
O=C(/C=C/c1ccc(Cl)c(C(F)(F)F)c1)N1CCN(c2ccccn2)CC1 | ? | 5.8% | -5.6% | 17.5%[15.4 µM] | . | -4.0 | -1.7
C=CCn1c(SCC(=O)N2CCN(C(=O)c3ccco3)CC2)nc2sc(CC)cc2c1=O | -11.0 | -17.5% | 8.4% | 3.6% | -5.1% | -8.5 | 0.0
O=C(NC(=S)NCCCN1CCOCC1)c1ccc(Br)cc1 | -5.3 | 5.4% | -13.2% | 22.0%[15.4 µM] | . | -8.7 | -4.2
COc1ccccc1NS(=O)(=O)c1ccc(C(=O)N2CCCCCCC2)cc1 | 3.6 | . | -8.9% | -3.7% | -1.1% | -5.8 | .
Cc1cc(NC(=O)CCCSc2nc(-c3ccco3)cc(C(F)(F)F)n2)n(-c2ccccc2)n1 | 25.7 | 8.6% | ? | 11.6% | -1.1% | 23.7 | 6.8
More entries.
SMILES | TRPV1 potentiator | Sfp PPTase inh | gsp antag | gsp agonist | ClpP mod | D2 PAM | Menin-MLL FL inh
CCOC(=O)C1=C(C)Nc2ccc(C)cc2S1 | 11.8 | 50.1µM* | -12.4% | -6.3% | -1.3% | -0.5 | ?
O=C(COc1ccc2ccccc2c1)N1CCN(C(=O)c2cccnc2)CC1 | 5.9 | 23.4% | 3.1% | 0.8% | -2.8% | 10.1 | -0.1
N#CN=C1CCCCCN1CC(N)=O | 29.2 | 15.0% | 17.9% | -62.2%[inhibitor] | -2.0% | -16.1 | -1.4
Nc1nc(CN2CCN(Cc3ccc4c(c3)OCO4)CC2)nc(Nc2ccccc2)n1 | ? | -1.3% | 0.2% | 0.0% | ? | -16.5 | -0.4
Cc1c(C(=O)NC2CCN(Cc3ccccc3)C2)oc2c(Cl)cccc12 (stereo unspecified) | 19.9 | -0.9% | 2.1% | 5.8% | . | -4.4 | -4.0
Cc1cccc(OCC(=O)NNC(=O)CCc2ccccc2)c1 | -11.9 | 0.9% | 13.5% | 9.6%[15.4 µM] | . | -11.4 | 1.5
Cc1ccc(C(=O)O/N=C(\N)c2ccccn2)cc1 | -4.4 | 14.5% | 1.3% | -3.0% | . | 3.8 | -0.9
CCOC(=O)N1CCN(C(=O)C2CCC(=O)N(Cc3ccccc3OC)C2)CC1 (stereo unspecified) | . | . | . | 1.6% | -3.5% | -6.4 | .

Screening data from PubChem.
